D2 potentiator: human D2 receptor positive allosteric modulation | AID 624464 | potentiation, % (no concentration beside the values) | DiscoveRx D2 beta-arrestin cells, luminescence, 90 min; 100% = 57 uM dopamine signal | P14416 | actives 0.23% (n = 360,000); active = potentiation of 50% or more; inconclusive = 30% to 50%; inactive = 30% or less;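 further: compound concentration not given in the record; tested on top of an EC20 dose of dopamine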
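PathHunter beta-arrestin assay in DiscoveRx D2 cells. Compounds were added with an EC20 of dopamine (50 nM final) for 90 min at 37 deg C. Luminescence was read 1 h after detection reagent, with 57 uM dopamine as the EC100 control.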
Sfp inh: blocks B. subtilis Sfp PPTase activity | Biochemical Sfp PPTase activity, qHTS | Potency, µM, for the others: max response, negative = inhibition, usual class: inhibitors | actives 3.5% (n = 310,000) | AID 1490; active means well fitted inhibition curve with a large enough effect; inconclusive means small, poorly fitted or top-dose-only effect, or another doubt; inactive means no such curve, though single readings can be large or run the other way;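 further: the enzyme is Sfp with the accession as filed and its product quenches rhodamine fluorescence; potency means the concentration at half of the fitted maximal effect; 0% = enzyme reaction without inhibitor and -100% = no enzyme wells; top concentration of the series not given in the record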
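Fluorescence-quenching assay with 15 nM Sfp, 5 uM rhodamine-CoA and 12.5 uM BHQ-2-labelled ybbR peptide in pH 7.6 Hepes/MgCl2 buffer. Enzyme was pre-incubated with compound for 15 min at room temperature. Rate was taken from the 30-min fluorescence change (525/598 nm).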
Six1-Eya2 inh: blocks human Six1 binding to Eya2. Q15475+O00167. AlphaScreen GST-Six1/His-Eya2 binding, biochemical; hits give low values; control for the full effect not named in the record. activity change, % (test concentration not listed). actives 0.56% (n = 360,000); in the data active = activity change below about -65%; inconclusive = about -30% to -65%; inactive = above about -30%; further: on the % scale 0 is the no-effect control and ±100 the full control effect; compound concentration not given in the record
Target sequence (O00167 whole entry, looked up): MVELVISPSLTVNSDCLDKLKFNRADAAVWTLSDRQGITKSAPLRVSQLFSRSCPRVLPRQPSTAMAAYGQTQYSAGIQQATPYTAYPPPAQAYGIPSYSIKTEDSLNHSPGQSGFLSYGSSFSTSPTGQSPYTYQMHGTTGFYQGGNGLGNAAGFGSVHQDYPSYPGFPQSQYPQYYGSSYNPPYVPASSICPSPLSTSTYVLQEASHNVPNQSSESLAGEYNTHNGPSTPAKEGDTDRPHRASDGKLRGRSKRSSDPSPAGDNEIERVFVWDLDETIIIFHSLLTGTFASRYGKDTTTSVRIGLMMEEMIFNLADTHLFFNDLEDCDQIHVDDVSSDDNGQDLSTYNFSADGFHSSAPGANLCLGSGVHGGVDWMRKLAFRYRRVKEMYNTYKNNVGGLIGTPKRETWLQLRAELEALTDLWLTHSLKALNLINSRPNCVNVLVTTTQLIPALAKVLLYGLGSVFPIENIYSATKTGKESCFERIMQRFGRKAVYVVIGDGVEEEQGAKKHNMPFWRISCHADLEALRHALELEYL
Target sequence (Q15475 whole entry, looked up): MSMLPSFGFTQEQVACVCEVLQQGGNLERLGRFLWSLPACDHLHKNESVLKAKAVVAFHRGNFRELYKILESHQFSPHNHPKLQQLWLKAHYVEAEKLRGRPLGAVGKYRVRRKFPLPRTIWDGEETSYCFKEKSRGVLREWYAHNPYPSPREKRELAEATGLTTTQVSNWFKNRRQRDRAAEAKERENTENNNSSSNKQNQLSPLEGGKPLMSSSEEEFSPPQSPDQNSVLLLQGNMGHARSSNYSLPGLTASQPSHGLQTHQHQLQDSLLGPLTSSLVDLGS
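Six1/Eya2 binding was read as AlphaScreen signal after compounds were pinned into GST-Six1 plus His-tagged Eya2 (5X stock 250/500 nM) in pH 8.0 Tris/NaCl/TCEP buffer, beads added, then incubated 1 h, 37 C, dark.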
PINK1 modulator: modulators of PINK1 expression | actives 0.2% (n = 410,000) | Potency, µM (top dose mostly 76.6 µM), for the others: top-dose activation (PINK1 increase), hits mostly activators | AID 624263 | PINK1 immunofluorescence, high-content cytometry, 24 h; active = well fitted activation curve with a large enough effect; inconclusive = small, poorly fitted or top-dose-only effect; inactive = flat fitted curve, though single readings scatter; cell line not stated here;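 further: potency means the concentration at half of the fitted maximal effect; % of control where 0% means no effect; nearly all actives have a fitted effect of over 65% in size; a mitochondrial uncoupler was the plate control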
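PINK1 protein, normally rapidly degraded, was detected by immunofluorescence after 24 hour compound treatment of a stable cell line. Titration data (5 concentrations) came from laser-scanning cytometry, with CCCP-treated wells as controls.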
CtBP-E1A blk: CtBP/E1A binding inhibition. activity change, % (no concentration beside the values). actives 0.49% (n = 340,000). AlphaScreen GST-E1A/His-CtBP binding, 1536-well; hits give low values; control for the full effect not named in the record; in the data active means activity change below about -65%; inconclusive means about -30% to -65%; inactive means above about -30%; further: on the % scale 0 is the no-effect control and ±100 the full control effect; compound concentration not given in the record
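In 5 uL wells, 23 nL compound meets equimolar GST-E1A and His-CtBP (5X stock 125 nM each) for 2 h, 37 °C. Beads (5X, 50 ug/mL) then 1 h, 37 °C, dark.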
D2 ag: activates the human D2 dopamine receptor | DiscoveRx PathHunter D2 beta-arrestin, luminescence, 90 min; 100% = 57 uM dopamine signal | activation, % (concentration not given with the values) | actives 0.084% (n = 360,000); in the data active = activation above about 40%; inconclusive = about 15% to 40%; inactive = below about 15%; further: compound concentration not given in the record; the text of the record calls up to 30% inactive
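Agonist mode: compounds alone added to overnight-plated D2 PathHunter cells for 90 min at 37 C, with 57 uM final dopamine (EC100) defining full response. Beta-arrestin recruitment detected by chemiluminescent reagent, read after 1 h at ambient temperature.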
TRPV1 PAM: human TRPV1 potentiation. TRPV1-expressing cells, Fluo-8 calcium influx, capsaicin EC20 potentiation; host cell line not named in the record; control for the full effect not named in the record. AID 540277. Q8NER1. actives 0.02% (n = 320,000). potentiation, % at 8.33 µM; active means potentiation above 80%; inconclusive means 30% to 80%; inactive means below 30%; further: 0% is about no effect
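TRPV1-expressing cells were cultured overnight at 35.5C and loaded with Fluo-8 calcium dye for 40 to 90 min at room temperature. After a 10 s baseline, compound was added and calcium influx was read kinetically for 3 min (ex 480/em 520 nm).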
Active calls of the source: *; & = joins results of further samples; [ ] = dose if it differs, or a comment.

`CC(=O)Nc1ccc(C(=O)NNC(=O)CCCCC(=O)NNC(=O)c2ccc(NC(C)=O)cc2)cc1` gave D2 potentiator -4, Six1-Eya2 inh 9, PINK1 modulator -0.8%, CtBP-E1A blk -9 and D2 ag -2.2.
Screening COc1ccc(C(C)NC(=O)c2ccc([N+](=O)[O-])cc2)cc1OC (stereo not drawn) returned D2 potentiator -9, Sfp inh 2%, Six1-Eya2 inh 7, PINK1 modulator 0.4%, CtBP-E1A blk 2, D2 ag 3.4 and TRPV1 PAM 10.
`Cc1cccc(NC(=O)C(c2cccc([N+](=O)[O-])c2)N2CCCCC2)c1` (stereo not drawn) gave D2 potentiator -5, Sfp inh 3%, Six1-Eya2 inh -14, PINK1 modulator 1.3%, CtBP-E1A blk -12, D2 ag -3.3 and TRPV1 PAM -6.
Screening COc1ccc(NC(=O)CN(C)C(=O)COc2ccccc2Cc2ccccc2)cc1 returned D2 potentiator -7, Six1-Eya2 inh -16, PINK1 modulator 4.2%, CtBP-E1A blk -24, D2 ag -7.3 and TRPV1 PAM -14.
COc1cc(NCCCCCCN)c2ncccc2c1OC was read as D2 potentiator 18, Six1-Eya2 inh inconclusive, PINK1 modulator 2.1%, CtBP-E1A blk -71* and D2 ag 13.
`O=C(COc1ncnc2ccccc12)Nc1cccc(S(=O)(=O)N2CCOCC2)c1` gave D2 potentiator 11, Sfp inh 4%, Six1-Eya2 inh -3, PINK1 modulator 1.7%, CtBP-E1A blk -2, D2 ag 3.6 and TRPV1 PAM 5.
For CCOC(=O)c1ccc(COc2ccc(C(C)C)cc2)o1 the results were D2 potentiator -2, Sfp inh 1%, Six1-Eya2 inh 52, PINK1 modulator 1.4%, CtBP-E1A blk 29, D2 ag -21 and TRPV1 PAM 0.
For Cc1n[nH]c(C)c1CCNCc1ccc(OCC(O)CN2CCCCC2)cc1 (stereo not drawn) the results were D2 potentiator -9, Sfp inh 1%, Six1-Eya2 inh 5, PINK1 modulator 0.7%, CtBP-E1A blk 38, D2 ag -2.6 and TRPV1 PAM -8.
For CNC(=O)CN1C(=O)c2ccccc2S1(=O)=O the results were D2 potentiator -12, Sfp inh 5%, Six1-Eya2 inh -5, PINK1 modulator 2.9%, CtBP-E1A blk -1, D2 ag -6.4 and TRPV1 PAM 0.
For CCN(CC)CCN(C(=O)c1ccc(S(=O)(=O)N(C)C2CCCCC2)cc1)c1nc2c(C)cccc2s1 the results were D2 potentiator -37, Sfp inh -7%, Six1-Eya2 inh -17, PINK1 modulator -0.5%, CtBP-E1A blk -5, D2 ag -3.4 and TRPV1 PAM -1.
For C#CCN(C[C@@H]1[C@@H](OC(=O)NCCCCCC)[C@@H](OC(=O)NCCCCCC)Cn2c(=O)n(CCCCCC)c(=O)n21)S(=O)(=O)c1ccc(C)cc1 the results were D2 potentiator 7, Six1-Eya2 inh 4, PINK1 modulator 1.0%, CtBP-E1A blk -16 and D2 ag -6.8.
Screening Cc1noc(C)c1CCC(=O)N1CCCC(CCC(=O)NCc2ccc(F)c(F)c2)C1 (stereo not drawn) returned D2 potentiator -9, Sfp inh -3%, Six1-Eya2 inh -8, PINK1 modulator 1.1%, D2 ag 9.6 and TRPV1 PAM 0.

The final three records of the part above come first, to join the parts:
For CCN(CC)CCN(C(=O)c1ccc(S(=O)(=O)N(C)C2CCCCC2)cc1)c1nc2c(C)cccc2s1 the results were D2 potentiator -37, Sfp inh -7%, Six1-Eya2 inh -17, PINK1 modulator -0.5%, CtBP-E1A blk -5, D2 ag -3.4 and TRPV1 PAM -1.
For C#CCN(C[C@@H]1[C@@H](OC(=O)NCCCCCC)[C@@H](OC(=O)NCCCCCC)Cn2c(=O)n(CCCCCC)c(=O)n21)S(=O)(=O)c1ccc(C)cc1 the results were D2 potentiator 7, Six1-Eya2 inh 4, PINK1 modulator 1.0%, CtBP-E1A blk -16 and D2 ag -6.8.
Screening Cc1noc(C)c1CCC(=O)N1CCCC(CCC(=O)NCc2ccc(F)c(F)c2)C1 (stereo not drawn) returned D2 potentiator -9, Sfp inh -3%, Six1-Eya2 inh -8, PINK1 modulator 1.1%, D2 ag 9.6 and TRPV1 PAM 0.
`COc1cc(C(=O)Nc2ccc(S(=O)(=O)NC(C)C)cc2)cc(OC)c1OC` gave D2 potentiator -6, Sfp inh 4%, Six1-Eya2 inh -2, PINK1 modulator -3.5%[38.3 µM], CtBP-E1A blk -4, D2 ag 2.0 and TRPV1 PAM 13.
O=C(Nc1nc(-c2cccnc2)cs1)c1ccc(S(=O)(=O)N2CCOCC2)cc1 was read as D2 potentiator -6, Sfp inh 5%, Six1-Eya2 inh -3, PINK1 modulator inconclusive, CtBP-E1A blk 1, D2 ag -2.0 and TRPV1 PAM 4.
`COc1ccc(S(=O)(=O)N2CCOCC2)cc1NC(=O)c1ccc(=O)[nH]c1` gave D2 potentiator -6, Six1-Eya2 inh -3, PINK1 modulator 1.7%, CtBP-E1A blk -1, D2 ag -5.6 and TRPV1 PAM -7.
Screening COCC1CCCN(C(=O)c2cc(COc3cccc4cccnc34)on2)C1 (stereo not drawn) returned D2 potentiator 9, Sfp inh 10%, Six1-Eya2 inh -5, PINK1 modulator -1.9%, CtBP-E1A blk -2, D2 ag 1.5 and TRPV1 PAM 4.
Screening Fc1ccc2c(c1)[C@H]1OCC[C@H]1[C@@H](c1ccco1)N2 returned D2 potentiator -2, Sfp inh 7%, Six1-Eya2 inh 0, PINK1 modulator -0.5%, CtBP-E1A blk -3, D2 ag -3.4 and TRPV1 PAM -25.
For Cc1cccc(C)c1OCc1cc(C(=O)NC2CCC2)no1 the results were D2 potentiator -5, Sfp inh 17%, Six1-Eya2 inh 6, PINK1 modulator -0.2%, D2 ag 1.8 and TRPV1 PAM -12.
`CCc1nc(C)cc(N)c1OCc1ccccc1` gave D2 potentiator -18, Sfp inh -3%, Six1-Eya2 inh 4, PINK1 modulator 1.3%, CtBP-E1A blk 6, D2 ag -2.2 and TRPV1 PAM 5.
Cc1cc(C)c(NC(=O)CSc2ccc(-c3ccccn3)nn2)c(C)c1 was read as D2 potentiator 10, Sfp inh -8%, Six1-Eya2 inh inconclusive, PINK1 modulator 11%&1.5%, CtBP-E1A blk -20, D2 ag 0.6 and TRPV1 PAM 7.
`COC(=O)c1cc2sccc2n1Cc1nc(-c2ccc(OC)cc2)oc1C` gave D2 potentiator -1, Sfp inh inconclusive, Six1-Eya2 inh -1, PINK1 modulator 29%[38.3 µM], CtBP-E1A blk 13, D2 ag -2.2 and TRPV1 PAM -3.
`COC(=O)c1sc(NC(=O)c2ccco2)nc1C` gave D2 potentiator -9, Sfp inh 12%, Six1-Eya2 inh 2, PINK1 modulator 1.6%, CtBP-E1A blk 5, D2 ag 0.2 and TRPV1 PAM 4.
O=c1c2ccccc2n2cnnc2n1-c1ccccc1 was read as D2 potentiator 3, Sfp inh 23%, Six1-Eya2 inh 17, PINK1 modulator -1.4%, CtBP-E1A blk 8, D2 ag -0.4 and TRPV1 PAM 15.
`O=C(NCCc1csc(-c2cccnc2)n1)c1cccc2ccccc12` gave D2 potentiator -6, Sfp inh -5%, Six1-Eya2 inh 0, PINK1 modulator 0.2%, CtBP-E1A blk -5, D2 ag -4.3 and TRPV1 PAM -17.
`COc1ccc(NC(=O)COc2ccc(N(C)S(=O)(=O)c3ccc(Cl)cc3)cc2)cc1OC` gave D2 potentiator -11, Six1-Eya2 inh -24, PINK1 modulator 0.4%, CtBP-E1A blk 0, D2 ag 0.9 and TRPV1 PAM -8.
`CCOC(=O)C1=C[C@@H](C(C)(C)C)N(S(=O)(=O)c2ccc(C)cc2)[C@H]1c1ccc(OC)cc1` gave D2 potentiator -8, Six1-Eya2 inh 7, PINK1 modulator 0.6%, CtBP-E1A blk inconclusive and D2 ag -5.5.
O=C(CSc1oc(-c2ccc(F)cc2)nc1S(=O)(=O)c1ccccc1)NCC1CCCO1 (stereo not drawn) was read as D2 potentiator -5, Sfp inh -2%, Six1-Eya2 inh -1, PINK1 modulator 18%, CtBP-E1A blk 3, D2 ag -0.9 and TRPV1 PAM -28.
For C=CCOc1ccc(C2=NOC(C(=O)Nc3ccc4c(c3)OCCO4)C2)cc1OC (stereo not drawn) the results were D2 potentiator -7, Sfp inh 10%, Six1-Eya2 inh -8, PINK1 modulator 3.3%, CtBP-E1A blk 7, D2 ag -2.9 and TRPV1 PAM inconclusive.
For O=C1[C@@H]2CSCN2C(=O)CN1Cc1cccc(C(F)(F)F)c1 the results were D2 potentiator -2, Sfp inh 20%, Six1-Eya2 inh 1, PINK1 modulator 1.7%, CtBP-E1A blk 11, D2 ag -3.4 and TRPV1 PAM -15.
`COc1cc2c(cc1OC)C(c1ccccc1)=NCC2` gave D2 potentiator -10, Sfp inh 31%&24%[activator], Six1-Eya2 inh 22, PINK1 modulator -0.2%, CtBP-E1A blk 7, D2 ag 0.6 and TRPV1 PAM -3.
O=C(COc1ccccc1C(=O)Nc1ccccc1)c1ccc(F)cc1 was read as D2 potentiator -6, Sfp inh 23%, Six1-Eya2 inh 0, PINK1 modulator 6.4%, CtBP-E1A blk -9, D2 ag -1.8 and TRPV1 PAM 4.
Nc1ncncc1-c1ccccc1Cl was read as D2 potentiator -2, Six1-Eya2 inh 6, PINK1 modulator 0.9%, CtBP-E1A blk -1 and D2 ag 1.6.
`O=C(Cc1cccc(F)c1)N1CCCC(CO)(Cc2ccc(F)cc2F)C1` (stereo not drawn) gave D2 potentiator -16, Sfp inh 4%, Six1-Eya2 inh -7, PINK1 modulator 0.9%, D2 ag -1.1 and TRPV1 PAM -20.
For O=C1N[C@@H](Cc2ccccc2)C(=O)N2CCC[C@@H]12 the results were D2 potentiator -25, Sfp inh 23%, Six1-Eya2 inh -4, PINK1 modulator -0.8%, CtBP-E1A blk -16, D2 ag -5.0 and TRPV1 PAM 15.
For Cc1ccc(SCC(=O)n2nc(C)cc2C)cc1 the results were D2 potentiator -16, Sfp inh 9%, Six1-Eya2 inh -11, PINK1 modulator -1.6%, CtBP-E1A blk -15, D2 ag -2.1 and TRPV1 PAM 6.
Screening O=C(NNC(=O)c1cc(-c2ccncc2)nc2ccccc12)c1cccc(Cl)c1 returned D2 potentiator -28, Six1-Eya2 inh -2, PINK1 modulator 3.5%, CtBP-E1A blk 3, D2 ag -11 and TRPV1 PAM 11.
Screening COc1ccc([N+](=O)[O-])cc1NCC(=O)Nc1cccc(S(=O)(=O)N2CCCC2)c1 returned D2 potentiator -19, Six1-Eya2 inh -25, PINK1 modulator 1.8%, CtBP-E1A blk -1, D2 ag 0.8 and TRPV1 PAM -18.
